Source: PubChem
GLA inh pH 4.5 = inhibitors of human alpha-galactosidase A at pH 4.5; activity change, negative = inhibition, % at 105 µM; 230,000 tested, under 10 active; AID 1467; purified enzyme, 4-MU-alpha-Gal fluorescence, pH 4.5; P06280; inconclusive = small, poorly fitted or top-dose-only inhibition, or a rising curve; inactive = flat fitted curve, though single readings scatter; no compound was filed as active;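 note: 0% = full activity with enzyme and -100% = basal without enzyme; dose as in the result columns while the protocol names 77 µM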
Target sequence (P06280 whole entry, looked up): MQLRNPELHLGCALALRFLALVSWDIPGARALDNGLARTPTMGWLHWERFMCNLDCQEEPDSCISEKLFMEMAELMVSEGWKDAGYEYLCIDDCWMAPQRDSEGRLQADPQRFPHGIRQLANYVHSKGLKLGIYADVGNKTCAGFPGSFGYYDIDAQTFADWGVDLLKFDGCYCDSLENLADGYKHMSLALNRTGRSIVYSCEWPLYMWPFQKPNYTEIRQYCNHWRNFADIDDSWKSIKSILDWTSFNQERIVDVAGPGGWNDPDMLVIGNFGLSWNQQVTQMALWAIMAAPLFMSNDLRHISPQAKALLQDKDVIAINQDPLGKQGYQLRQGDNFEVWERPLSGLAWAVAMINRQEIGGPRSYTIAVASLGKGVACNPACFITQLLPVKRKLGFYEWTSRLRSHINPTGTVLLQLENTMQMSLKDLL
Rango release inh = prevents RanGTP from dissociating the Rango-importin beta complex. O95149+P62826. Biochemical FRET Rango-importin beta, RanGTP-induced dissociation. Potency, µM (top dose mostly 46.1 µM), without a hit: at the highest dose activity change, negative = inhibition. actives 0.071% (n = 340,000). AID 540253; active means falling FRET ratio curve, often poorly fitted, with flat reads before Ran was added; inconclusive means other falling curves, or compound fluorescence or quenching; inactive means flat or rising ratio curve;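 note: potency is the fitted concentration of half-maximal effect; % of control where 0% means no effect; nearly all actives have a fitted effect of over 45% in size; -100% = wells without RanGTP and RCC1; the record marks most hits as doubtful in a second field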
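Compounds preincubate 5 min with complex of recombinant Rango and importin beta in PBS with 1 mM DTT. Ran (0.6 uM) loaded with 2 mM GTP plus 0.2 uM RCC1 starts dissociation; FRET is recorded 45 min later.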
miR-21 FLuc = miR-21 reporter, rising signal; HeLa miR-21 FLuc reporter, luciferase, 48 h; Potency, µM (titrated, usually from 38.3 µM), inactives show at the top dose reporter change, positive = more light; 340,000 tested, under 10 active; AID 2288; active = well fitted rising curve with a large enough effect; inconclusive = small, poorly fitted or top-dose-only effect; inactive = no such curve, though single readings can be large or run the other way;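 note: % of control where 0% means no effect; miR-21 action dims this reporter so a rising signal means less miR-21 action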
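HeLa cells endogenously expressing miR-21, stably carrying CMV-driven firefly luciferase with a downstream miR-21 binding site, 2000 cells/well. Titrations up to approximately 40 uM, 48 hours; luciferase luminescence read.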
Rango complex inh = inhibitors of Rango-importin beta complex formation | Q14974 | AID 540263 | Rango CFP/YFP FRET sensor + importin beta, 45 min | Potency, µM (doses to about 92.2 µM), without a hit: top-dose inhibition of complex formation | actives 0.031% (n = 340,000); active = rising FRET ratio curve, often small or poorly fitted; inconclusive = mostly compound fluorescence or quenching in the first reads; inactive = flat curves in all reads;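 note: potency is the fitted concentration of half-maximal effect; 0% = DMSO wells and 100% = buffer wells lacking importin beta; nearly all actives have a fitted effect of over 15% in size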
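Inhibition scored from the CFP 486 nm/YFP 530 nm FRET ratio 45 min after adding 0.125 microM importin beta to 50 nM Rango biosensor preincubated 5 min with compound (room temperature, PBS with DTT, Tween-20, BSA). No-importin wells as positive control.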
The depositor's hits bear a star; ? = inconclusive; . = no result given; & = joins results of further samples; [ ] = another dose, or the depositor's remark.

The first 4 compounds, ahead of the listing:
| GLA inh pH 4.5 | Rango release inh | miR-21 FLuc | Rango complex inh | SMILES |
| --- | --- | --- | --- | --- |
| -5 | -10% | -9% | 3.7% | COc1cccc(C2/C(=C(/O)c3ccccc3)C(=O)C(=O)N2CCCC(=O)O)c1 (centres undefined) |
| . | 23% | -7% | 2.8% | COc1cc(Br)cc(CN2CCN(c3ncccn3)CC2)c1O |
| -2 | ? | -5% | -1.2% | CC(O)c1nc2ccccc2n1Cc1ccc([N+](=O)[O-])cc1 (centres undefined) |
| . | 23% | 0%&1% | -1.6% | COc1ccc(CCNC(=O)CN2C(=O)COc3ccc(S(=O)(=O)N4CCCC4)cc32)c(OC)c1 |

The whole of this part, repeating the preview:
| GLA inh pH 4.5 | Rango release inh | miR-21 FLuc | Rango complex inh | SMILES |
| --- | --- | --- | --- | --- |
| -5 | -10% | -9% | 3.7% | COc1cccc(C2/C(=C(/O)c3ccccc3)C(=O)C(=O)N2CCCC(=O)O)c1 (centres undefined) |
| . | 23% | -7% | 2.8% | COc1cc(Br)cc(CN2CCN(c3ncccn3)CC2)c1O |
| -2 | ? | -5% | -1.2% | CC(O)c1nc2ccccc2n1Cc1ccc([N+](=O)[O-])cc1 (centres undefined) |
| . | 23% | 0%&1% | -1.6% | COc1ccc(CCNC(=O)CN2C(=O)COc3ccc(S(=O)(=O)N4CCCC4)cc32)c(OC)c1 |
| -4 | 14% | ? | ? | Cc1ccc(Nc2c(-c3ccccn3)nc3ccc(C)cn23)cc1 |
| -1 | -19% | 2% | ? | CN(C)[C@@H]1C(=O)C(C(N)=O)=C(O)[C@@]2(O)C(=O)C3=C(O)c4c(O)ccc(Cl)c4[C@@H](O)[C@H]3C[C@@H]12 |
| 0 | -5% | -1% | -1.0% | CS(=O)(=O)Nc1ccc(C(=O)NCc2cccnc2)cc1 |
| . | -9% | . | -0.1% | CCC(=O)c1ccc(OCC(=O)NCCCN2CCOCC2)cc1 |
| 1 | -5% | 23% | -0.1% | Cc1ccc(S(=O)(=O)N2CCOC2CNC(=O)C(=O)NCCc2c[nH]c3ccccc23)cc1 (centres undefined) |
| . | 13% | -4% | 5.1% | COc1ccc(CC(=O)N/N=C(\C)c2cccc(NC(=O)C3CC3)c2)cc1 |
| -1[21.1 µM] | 16% | -58% | 5.3% | Fc1ccccc1NC(=S)N1CCC(c2ccccc2)C1 (centres undefined) |
| 4 | -11% | 0% | -0.9% | O=C(CN1CCN(c2nc(-c3ccccc3)cs2)CC1)NNC(=O)c1ccco1 |
| 3 | -3% | -11% | -2.3% | O=C(/N=C1/c2ccccc2CN1c1ccccc1)Nc1ccccc1 |
| 3 | -1% | 0% | 3.5% | COc1ccc2c(CC#N)c[nH]c2c1 |
| 3 | 7% | -4% | 1.3% | CCCOc1ccc(N2C(=O)CC(SCc3nc4ccccc4[nH]3)C2=O)cc1 (centres undefined) |
| -17 | 8% | -3% | -2.9% | O=C(NCC1CCCO1)/C(=C/c1ccccc1)NC(=O)c1ccccc1 (centres undefined) |
| . | -2% | . | 0.5% | Cc1ccc(NC(=O)CN(C)C(=O)CSc2ccccc2F)cc1 |
| . | 23% | -10% | 0.0% | CCCC(C)c1nnc(NC(=O)COc2ccc3c(c2)OCO3)s1 (centres undefined) |
| 5 | -5% | -5% | 4.4% | COc1ccc(-n2c(SCC(=O)NNC(=O)c3ccccc3C)nnc2-c2ccncc2)cc1 |
| ? | 13% | -50% | -0.2% | Nc1nc2nc(-c3ccc(F)cc3)cc(C(F)(F)F)n2n1 |
| 6 | -2% | -19% | 0.0% | COc1cccc(CNC(=O)CCC2CCCN(C(=O)c3cc(C4CC4)[nH]n3)C2)c1 (centres undefined) |
| 2 | -2% | 10% | -0.8% | COc1ccc(-c2cc(CCCC(=O)N3CCN(c4ccc(OC)cc4)CC3)no2)cc1 |
| 3 | -3% | -3% | ? | Cc1cc(Nc2ccc(C)c(Br)c2)n2nc(C)nc2n1 |
| 2 | -2% | -5% | 0.6% | O=C(Nn1cnnc1)C(c1ccccc1)c1ccccc1 |
| -3 | -4% | -41% | 0.7% | Cc1ccc(-c2nc(Nc3ccccc3)n[nH]2)cc1 |
| -1 | 7% | 0% | -7.3% | COc1ccc(-n2c(-c3ccccc3)nc(=S)c3c2CCCC3)cc1 |
| 1 | 0% | -39% | 8.2% | C=CCOc1ccc(CNc2nccs2)cc1OC |
| . | 25% | -1% | 5.3% | O=C(N[C@@H](Cc1ccccc1)C(=O)NCc1ccc(F)cc1)C1CCNCC1 |
| . | -6% | . | 3.7% | CCS(=O)c1ccccc1C(=O)OCC(=O)Nc1ccc2ccccc2c1 (centres undefined) |
| . | -2% | . | 6.1% | O=C1c2ccccc2C(=O)N1c1ccccc1 |
| 1 | 18% | -1%&0% | 3.1% | CCCCNC(=O)CCC(=O)NNc1nc2ccccc2c2nc(C)nn12 |
| -5 | -9% | -8% | 1.1% | CC(NC(=O)Cc1ccccc1F)c1ccc(F)cc1 (centres undefined) |
| 3 | 0% | -3% | 0.6% | COc1cccc(CNCC(=O)Nc2ccc(N3CCOCC3)cc2)c1 |
| . | -6% | . | 2.0% | CCOC(=O)C1(C#N)Cc2ccccc2C1 |
| -2 | 13% | -4% | -1.9% | CCOc1cc(/C=N/NC(=O)c2ccncc2)ccc1OS(C)(=O)=O |
| 4 | 16% | -2% | 3.0% | COCCOC(=O)C1=C(C)NC(=O)NC1c1c(F)cccc1Cl (centres undefined) |
| 4 | 0% | -4% | 2.4% | COC(=O)C1=C(C)N(c2ccc(Cl)cc2)/C(=C/c2cccs2)C1=O |
| -17 | 19% | 16% | -0.6% | CCN(CC)CCNC(=O)c1cc2c(-c3ccc(Cl)cc3)nn(C)c2s1 |
| . | ? | . | ? | CC(OC(=O)C1=Cc2ccccc2OC1)C(=O)NCC1CCCO1 (centres undefined) |
| 6 | -1% | -49% | ? | CSc1nnc(-c2ccc(Cl)cc2Cl)o1 |
| . | -11% | . | -4.1% | Cc1cc(C(=O)OCC(=O)N(C)c2ccccc2)c2ccccc2n1 |
| . | 19% | 2% | -0.3% | O=C(CCC(=O)NCCO)NCCO |
| . | 0% | 2% | 0.0% | CCOC(=O)CNC(=O)OC1CCN2Cc3ccccc3N=C12 (centres undefined) |
| . | ? | . | ? | O=C(CN1C(=O)c2cccc3cccc1c23)Nc1ccccc1C(=O)NCc1ccco1 |
| . | 2% | . | -0.4% | CC(C)COc1cccc(C(=O)Nc2cc(S(=O)(=O)N3CCOCC3)ccc2N2CCCC2)c1 |
| 3 | -14% | -25% | -2.4% | Cc1nnc2sc(-c3cccc4ccccc34)nn12 |
| . | 0% | -6% | -2.3% | CCOc1cc(S(=O)(=O)NCCCN2CCOCC2)ccc1F |
| -1 | -10% | -3% | 3.7% | CCC(OC(=O)c1cccs1)C(=O)NCc1ccco1 (centres undefined) |
| -2 | 2% | -9% | 0.5% | CSCCC(NS(=O)(=O)c1ccc(Cl)cc1)C(=O)OCc1cccc(Cl)c1 (centres undefined) |
| . | -5% | -8% | 0.2% | O=C(C1CC(=O)N(c2ccc(F)cc2)C1)N1CCCCCC1 (centres undefined) |
| -2 | 0% | -1% | 3.3% | COCCSc1nnc(NC(=O)c2ccc(OC)c([N+](=O)[O-])c2)s1 |
| . | -4% | . | 5.2% | CC1CCCC(NC(=O)COC(=O)c2ccc(Br)o2)C1C (centres undefined) |
| . | -6% | -38% | -2.0% | Cc1ccc(NC(=O)C(C)SCc2ccccc2)cc1 (centres undefined) |
| -11 | 6% | -5% | 9.7% | OCCn1nc2c3ccccc3nc-2n(-c2ccccc2)c1=S |
| 1 | -8% | 0% | -1.2% | O=C1c2ccccc2C(=O)N1CCCCSc1nc2ccccc2c(=O)n1CCCN1CCOCC1 |
| -1 | 21% | -2% | 0.5% | Cc1ccc(/C=N/NC(=O)c2cccc(S(=O)(=O)Nc3cccc(Cl)c3)c2)o1 |
| 3 | 1% | 2% | -4.1% | NC1=NC(c2ccccc2Cl)n2c(nc3ccccc32)N1 (centres undefined) |
| 5 | -17% | 5% | ? | CCOC(=O)C1C(c2cccnc2)NC(=O)NC1(O)C(F)(F)F (centres undefined) |
| 5 | 10% | -9% | 5.5% | CCOC(=O)Cc1nnc(NC(=O)CSc2nnc3c4ccccc4n(C(C)C)c3n2)s1 |
| . | -1% | . | -0.1% | CCOc1ccc(C(=O)CC(C(=O)O)N2CCN(Cc3ccccc3)CC2)cc1 (centres undefined) |

(further entries)
| GLA inh pH 4.5 | Rango release inh | miR-21 FLuc | Rango complex inh | SMILES |
| --- | --- | --- | --- | --- |
| . | 2% | -2% | -0.3% | O=[N+]([O-])c1cccc(S(=O)(=O)NCCCn2ccnc2)c1 |
| -19 | 13% | -21% | -2.0% | Cc1cc2ncn(/N=C/c3ccc(-c4ccccc4)o3)c2cc1C |
| 0 | 7% | -5% | 0.7% | Cc1cc(-c2nnc(-c3ccccc3)c(-c3ccccc3)n2)c(C)o1 |
| -4 | -4% | -1% | -3.3% | O=C(COC(=O)CC1CCCC1)Nc1ccc(OC(F)F)cc1 |
| . | 6% | . | 0.0% | CCCCNc1c(-c2cccc(-c3cc(C(C)=O)cs3)c2)nc2cc(C)ccn12 |
| 5 | 18% | -46% | -1.9% | CCCCn1nnc(NC(=S)NC(=O)c2cccs2)n1 |
| . | 16% | . | -3.4% | NC(=O)C1CCN(S(=O)(=O)c2cc3c4c(c2)CCN4C(=O)CC3)CC1 |
| -8 | 16% | 0% | -5.3% | CC(=O)Nc1ccc(NC(=O)CN(c2ccc(F)cc2)S(=O)(=O)c2ccc3c(c2)OCCO3)cc1 |
| . | 8% | . | ? | O=C(COC(=O)COc1ccccc1)NC1CCCC1 |
| 3 | -16% | 2% | -0.8% | N#Cc1c(C(F)(F)F)cc(-c2cccs2)nc1SCC(=O)O |
| 4 | -4% | -71% | 1.9% | Cc1c(C(N)=O)sc2nc(-c3ccccc3)cn12 |
| -19 | -10% | -11% | -1.6% | COc1ccc(-c2ccc(/C=C3/C(=N)N4C=CSC4=NC3=O)o2)c([N+](=O)[O-])c1 |
| . | 0% | . | -1.0% | Cc1ccc(S(=O)(=O)N2[C@@H](c3ccc(C(C)(C)C)cc3)C(C(=O)O)=CC[C@H]2c2cccc(Cl)c2)cc1 |
| . | 36% | . | 0.7% | CCN1CCN(c2ccc(S(=O)(=O)N3CCCCC3)cc2NC(=O)c2ccc([N+](=O)[O-])s2)CC1 |
| . | -2% | . | -3.2% | CC[C@]12c3[nH]c4cc(-c5ccco5)ccc4c3CCN1C(=O)[C@@H](CC(=O)NCCN1CCOCC1)C[C@@H]2C(=O)N1CCN(C(=O)c2ccco2)CC1 |
| -4 | 0% | -16% | -2.0% | COc1ccc(-c2nnc(SCC(=O)NCCc3ccc(S(N)(=O)=O)cc3)o2)cc1OC |
| -9 | ? | -4% | ? | CS(=O)(=O)C1=NSC2=NC(=O)/C(=C\c3cccn3-c3ccc(Cl)cc3)C(=N)N21 |
| -5 | 2% | -1% | ? | COCCN(CC(=O)NCc1ccccc1)C(=O)CCC(=O)Nc1nccs1 |
| 3 | 12% | -38% | -1.9% | CCCc1[nH]n(-c2nc3ccccc3s2)c(=O)c1C=NCCCN(CC)CC |
| . | -12% | ? | 0.4% | COc1ccc(CNC(=O)c2nc(S(=O)(=O)Cc3ccccc3)ncc2Cl)cc1 |
| -13 | 17% | -8% | 3.8% | O=C(COc1ccc(Cl)cc1Cl)N(Cc1ccco1)C1CCS(=O)(=O)C1 (centres undefined) |
| 1 | -10% | -51% | -1.3% | CCOC(=O)c1nn(-c2cccc(C)c2)cc1C(=O)c1ccccc1 |
| . | 16% | -31% | 2.5% | COc1ccc(C(=O)Nc2ccc(C(=O)N3CCCCC3)cc2)cc1OC |
| -11 | 1% | 3% | 0.2% | CC(C)(C)OC(=O)[C@H](Cc1ccccc1)NC(=O)c1nc[nH]c1C(=O)NCc1ccccc1 |
| 2 | -6% | 7% | ? | CC(O)[C@H]1CNC(=S)N1CCc1cccc(F)c1 (some centres undefined) |
| 4 | -13% | -4% | 0.9% | CC(C)(C)C(=O)NCC12C=CC(O1)C1C(=O)N(c3ccccc3)C(=O)C12 (centres undefined) |
| 0 | -1% | -3% | -1.6% | COc1ccc(-c2[nH]ncc2CN(C)Cc2cc(C)[nH]n2)c(F)c1 |
| 0 | 2% | 14% | -1.2% | COc1ccc(/C=C2\C(=O)NCC(=O)N2Cc2ccccc2)cc1 |

An excerpt; count on the stated rates, not on these rows.
